# 2A firefly: lowers the firefly signal of an FMDV 2A StopGo reporter. HEK cells with a luciferase reporter of 2A StopGo recoding. Potency, µM (titrated, usually from 57.5 µM), inactives show at the top dose signal change, negative = less light. AID 1745856. 120,000 compounds, 0.23% hits; active = well fitted falling curve with a large enough effect; inconclusive = small, poorly fitted or top-dose-only effect; inactive = no such curve, though single readings can be large or run the other way; also: nearly all actives have a fitted effect of over 60% in size; overnight with compound
# 2A Renilla: FMDV 2A StopGo reporter, Renilla signal. 120,000 compounds, 0.32% hits. Potency, µM (highest dose often 57.5 µM), for the others: at the top dose signal change, negative = less light. HEK cells with a luciferase reporter of 2A StopGo recoding; active means well fitted falling curve with a large enough effect; inconclusive means small, poorly fitted or top-dose-only effect; inactive means no such curve, though single readings can be large or run the other way; also: nearly all actives have a fitted effect of over 55% in size; overnight with compound
# * marks the source's active call; other numbers are inactive results; ? = inconclusive; & = joins results of further samples; [ ] = remark or other dose. % is scaled to controls: 0 for no effect and ±100 for the full control effect; potency is read from the fitted curve at half-maximal effect. Some of the compounds tested; count on the stated rates, not on these rows.
SMILES,2A firefly,2A Renilla
O=C(CCNC(=O)c1ccc(Cl)cc1)Nc1cccc(S(=O)(=O)N2CCCCC2)c1,4%,90%[activator]
N=c1nnc(-c2ccc(Cl)cc2)cn1O,114%[activator],-4%
CC(=O)Oc1ccccc1C(=O)Nc1ncc([N+](=O)[O-])s1,118%[activator][11.5 µM],14%
CN(C)c1ccc(CNC(=O)c2ccc(NC(=O)c3nsc4ccccc34)cc2)cc1,-37%,30%
O=C(Cn1nc(Cc2cccnc2)c2ccccc2c1=O)Nc1cccc(C(F)(F)F)c1,-16%,-4%
CCN1CCN(c2oc(-c3ccccc3OC)nc2C#N)CC1,13%,-5%
CCOC(=O)c1ccc(N2C(=O)c3[nH]nc(-c4ccc(OC)cc4)c3C2c2cccc(O)c2)cc1 (stereo not given),?,?
Cc1c(C(=O)N(C)C2CCN(CCc3ccccn3)CC2)oc2ccccc12,-14%,-20%
CCn1ccc2c(OCC(=O)Nc3ccc(C(C)=O)cc3)cccc2c1=O,-11%,-2%
Clc1ccc(CN2CCN(c3ncnc4nc[nH]c34)CC2)cc1,12%,-6%
COc1cccc(C(=O)Nc2ccc(N3CCN(C(=O)c4ccccc4C)CC3)cc2)c1,?,?
CC1CCN(C(=O)Cn2c(=O)oc3cc(S(=O)(=O)N4CCCCC4)ccc32)CC1,-9%,5%
COc1ccc(C(C)=O)cc1COC(=O)c1cc(Br)ccc1Cl,22%,18%
COc1ccc2cc(-c3nc(Cl)c4c5c(sc4n3)CC(C)CC5)c(=O)oc2c1 (stereo not given),-13%,5%
COc1ccc2c(c1)c(=O)c(S(=O)(=O)c1ccc(C)cc1)cn2C,-2%,19%
COc1cccc(C2=C(C(C)=O)Sc3nncn3N2C(C)=O)c1,14%,-19%
CCc1ccccc1NC(=O)C(CCSC)NS(=O)(=O)c1ccc2c(c1)oc(=O)n2C (stereo not given),-23%,-10%
O=C(CCSc1ccc(F)cc1)Nc1ccc(N2CCOCC2)cc1,24%,1%
COc1cc(OC)c(C(=O)Nc2cc(C(C)(C)C)on2)cc1OC,20%,-11%
O=C(Nc1ccc(-c2nc3ccccc3o2)cc1)C(F)(F)F,120%[activator],1%
Cc1cc(C)c(S(=O)(=O)NCc2ccc3c(c2)CCN3C(=O)c2ccccc2)c(C)c1,0%,19%
Cc1cccc(Cn2c(=O)n(-c3cc(C)cc(C)c3)c(=O)c3oc4ccccc4c32)c1,-13%,0%
CCCCNc1ccc(-c2nc(-c3ccco3)no2)cc1[N+](=O)[O-],151%[activator],7%
CCOc1ccc(S(=O)(=O)n2nc(C)c(S(=O)(=O)N3CCCCC3)c2C)cc1,-9%,3%
Cc1ccccc1-n1c(=O)c2c3c(sc2n2cnnc12)CCCC3,1%&-15%,-20%&-15%
O=C(NC1CC2CCC1C2)c1ccccc1Cl (stereo not given),0%,4%
COc1ccc(OC)c(-c2noc(NCCc3ccc(Cl)cc3)n2)c1,0%,-4%
CC1CCN(S(=O)(=O)c2ccc3c(c2)N(CC(=O)NC(C)c2ccccc2)C(=O)CO3)CC1 (stereo not given),39%[activator],29%
Cc1ccccc1NC(=O)c1nc2ccccc2nc1N1CCCCC1,4%,34%
Cc1cccc(OC(C)C(=O)Nc2cccc3cccnc23)c1C (stereo not given),7%,10%
Cc1ccc(NC(=O)Cn2nc(-c3cccc([N+](=O)[O-])c3)c3ccccc3c2=O)c(C)c1,20%,2%
COc1ccc(CNC(=O)C2CCN(C(=O)c3ccc(-n4ccc5ccccc54)s3)CC2)cc1,5%,-27%
O=C(CCc1cccnc1)Nc1ccc(Cl)cc1F,61%[activator],-3%
Cc1ccc(NC(=O)CSc2[nH]c(=O)ncc2C)cc1,104%[activator],3%
COc1ccc(NC(=O)NCc2cccn2Cc2ccc(F)cc2)cc1OC,-6%,124%[activator]
Cn1c(=O)c2c(-c3cccc(Br)c3)n(C(C)(C)CO)cc2n(C)c1=O,-12%,-12%
Cc1ccc(C)c(S(=O)(=O)NCCc2csc(-c3ccc(Cl)cc3)n2)c1,?,226%[activator]
Cc1cccc(NC(=O)CN(C)S(=O)(=O)c2ccc3c(c2)c(=O)n(C)c(=O)n3C)c1C,?,-14%
CC(C)CC(=O)N(c1ccc(Br)cc1)C1C=CS(=O)(=O)C1 (stereo not given),0%,-7%
Cc1ccc(C(Nc2ccc3nnnn3n2)c2cccs2)cc1 (stereo not given),22%,111%[activator]
Cc1nc2ccccn2c(=O)c1NC(=O)c1cccc(F)c1,12%,-9%
CC(=O)c1cccc(NS(=O)(=O)c2ccc(C)cc2)c1,26%,253%[activator]
O=C(/C=C/c1ccc(C(F)(F)F)cc1)N1CCN(Cc2ccccc2)CC1,4%,-2%
Cn1cc(S(=O)(=O)N2CCc3ccccc32)cc1C(=O)Nc1ccc(C(F)(F)F)cc1,-21%,-4%
CC(=O)N1c2c(cc(Br)cc2S(=O)(=O)Nc2ccccc2C)CC1C (stereo not given),-5%,220%[activator]
CSC1=N/C(=C\c2ccc(C(=O)O)cc2)C(=O)S1,24%,9%[1.06 µM]
O=C(Cn1c(=O)n(-c2cccc(Cl)c2)c(=O)c2sc3ccccc3c21)N1CCCC1,24%,58%[activator]
CC(C)c1cc(C(=O)O)c(O)c(C(C)C)c1,-7%,-10%
CCC(C(=O)N1CCN(c2cccc(C)c2C)CC1)n1nc(C)c2sc3ccccc3c2c1=O (stereo not given),1%,-10%
O=C(O)c1ccc2c(c1)oc1ccccc12,37%[activator],15%

# The listing continues:
SMILES,2A firefly,2A Renilla
COC(=O)C1C(=O)CC(C)(O)C(C(=O)OC)C1c1cccc(F)c1 (stereo not given),2%,7%
CCOc1ccc(Cn2nnc(C(=O)Nc3cccc(SC)c3)c2N)cc1,147%[activator],110%[activator]
Cc1cc(C)cc(N2CCn3c2nc2c3c(=O)n(Cc3ccc(Cl)cc3)c(=O)n2C)c1,4%,-12%
Cc1ccc(C#N)c(=O)n1CC(=O)Nc1ccccc1C(F)(F)F,-1%,-4%
CSc1ccc(/C=C2\N=C(c3ccc(C)cc3)OC2=O)cc1,45%[activator],6%
O=C(CCCN1CCC(n2c(=O)[nH]c3ccccc32)CC1)c1ccc(F)cc1,-12%,-10%
C=CCn1c(CC)nc2ccccc21,22%,10%
COCCNC(=O)COc1ccc2c(C)cc(=O)oc2c1,3%,-13%
CCOC(=O)c1ccccc1NC(=O)CCc1nc(-c2ccc(C)cc2)no1,-17%,-2%
CCCC12CN3CC(CCC)(CN(C1)C3c1ccccc1)C2=O (stereo not given),2%&-13%,2%&2%
CC(NC(C)c1ccccc1Cl)c1ccc(F)cc1 (stereo not given),-1%,-1%
CC(C)c1ccc(NC(=O)CCCn2cnc3c2c(=O)n(C)c(=O)n3C)cc1,-13%,-13%
CCOC(=O)CN1C(C(C)=O)=C(OC(=O)CC)c2ccccc2S1(=O)=O,0%,-5%
CCc1ccc(NC(=O)c2ccc(F)c(S(=O)(=O)N(C)C3CCCCC3)c2)cc1,?,-29%
CCOc1ccccc1NC(=O)c1sc2nc(C)cc(C)c2c1N,3%,-4%
CCOC(=O)C1=CN(c2ccc(F)cc2)C=C(C(=O)OCC)C1c1ccc2c(c1)OCO2,6%,1%
COC(=O)c1sc(S(=O)(=O)Nc2ccccc2Br)c(C(=O)OC)c1C,15%,-10%
COc1ccc(CN(Cc2ccco2)C(=O)COc2ccccc2OC)cc1,-2%,19%
CCn1c(-n2nc(C)c(C)c2C)nc2c1c(=O)n(Cc1ccc(OC)cc1)c(=O)n2C,11%,3%
CCOc1ccc(C(=O)Nc2ccc(Cl)c(-c3nc4cc(C)cc(C)c4o3)c2)cc1,-11%,-12%
Cc1nn(CC(=O)Nc2ccc(C(C)C)cc2)c(=O)c2c(C)n(-c3ccc(Cl)cc3)nc12,-9%,-5%
CCC(Sc1nc2ccncc2[nH]1)C(=O)Nc1ccc(C)c(Cl)c1 (stereo not given),-6%,4%
O=C(COc1ccc(Cl)cc1)Nc1ccc2oc(=O)ccc2c1,12%,10%
Cc1ccc(C(C)NS(=O)(=O)C2=Cc3ccccc3CC2)o1 (stereo not given),18%,0%
CSc1ccccc1NC(=O)c1csc(C)c1C,131%[activator],3%
CCSc1ncc(Cl)c(C(=O)N(Cc2ccc(N(C)C)cc2)Cc2ccco2)n1,-3%,-2%
COc1ccc(CCNc2ncnc3c2cnn3-c2cc(Cl)ccc2C)cc1,?,?
CC(C)(C)OC(=O)N1CCC(c2c(C(=O)N3CCN(C(=O)c4ccco4)CC3)cnn2-c2ccccc2)CC1,-21%,-3%
O=C(O)c1ccc(/C=C/c2nc3cc(Cl)ccc3o2)cc1,67%[activator],4%
CCN(CC)C(=O)c1sc(NC(=O)C(c2ccccc2)c2ccccc2)c(C#N)c1C,5%,-3%
CCN1C(C(=O)c2ccccc2)=C(OC(=O)c2ccc(Cl)cc2)c2ccccc2S1(=O)=O,-11%,4%
COc1ccc(S(=O)(=O)Nc2ccccc2Cl)cc1NC(=O)c1cccc(-n2cccc2)c1,-4%,145%[activator]
CCOc1ccc(-c2noc(-c3nnn(-c4ccc(C(C)C)cc4)c3N)n2)cc1,0%,13%
COc1ccc(N(C(=O)c2ccco2)S(=O)(=O)c2ccc3c(c2)oc(=O)n3C)cc1,0%,175%[activator]
CCOC(=O)c1c(C)[nH]c(C)c1S(=O)(=O)N(C)CC(=O)Nc1ccc(C)cc1Br,-20%,99%[activator]
COc1cc2c(cc1OC)-c1c(c(C(=O)N3CCC(C(N)=O)CC3)nn1-c1ccccc1F)C2,47%[activator],130%[activator]
COc1ccc(C(=O)NCC(c2ccc(N(C)C)cc2)N2CCc3ccccc32)c(OC)c1 (stereo not given),-15%,-16%
CC1C(c2ccc(Cl)cc2)=[N+]([O-])C(C)(C)N1O (stereo not given),-7%,22%[1.06 µM]
COc1ccc(C)cc1S(=O)(=O)Nc1cccc(-c2ccc(N3CCC(C)CC3)nn2)c1,60%[activator],11%
c1ccc2c(N3CCCCC3)nc(N3CCCC3)nc2c1,?,?
COc1ccc(C(=C(Cl)Cl)c2ccc(OC)cc2)cc1,28%,28%
CC(C)(C(=O)Nc1cccc(OCCS(C)(=O)=O)c1)c1ccccc1,21%,13%
CCCN(C(=O)Cn1ncc2c([nH]c3ccccc32)c1=O)c1ccc(F)cc1,-6%,-13%
Cc1ccc2[nH]c(C(=O)N3CCC(C(N)=O)CC3)cc2c1,63%[activator],59%[activator]
CCOC(=O)c1ccc(NC(=O)/C(C#N)=C/c2ccc(OC)cc2)cc1,-6%,1%
CCOc1ccc(-c2nc(C#N)c(NC3CC3)o2)cc1,179%[activator],0%
O=C(Nc1ccc(Br)c2cccnc12)c1cccc2ccccc12,1%,0%
Cn1nc(C(=O)Nc2ccc(F)cc2F)c2ccccc2c1=O,16%,5%
Cc1cccc(NC(=O)N2CCC3(CC2)Oc2ccccc2C(=O)N3Cc2ccccc2F)c1C,-11%,2%
O=C(NCc1ccc2c(c1)CCN2C(=O)c1ccncc1)c1ccccc1F,-20%,8%

# More structures
SMILES,2A firefly,2A Renilla
Cc1cc(C)c(NC(=O)CSc2nc3nccnc3c(=O)n2CCc2c[nH]c3ccccc23)c(C)c1,-7%,-10%
CNC(=S)NNC(=O)c1csc2ccccc12,0%,23%
COC(=O)C1CCN(Cc2cc(=O)oc3cc(-c4ccccc4)c(O)cc23)CC1,87%[activator],1%
CN(CCC#N)Cc1ccsc1,-1%,0%
Cc1cccc(Nc2nc(C(=O)NCCCN3CCOCC3)cs2)c1,2%,-13%
O=C(COc1c(I)cc(Cl)c2cccnc12)NC12CC3CC(CC(C3)C1)C2,-13%,-16%
CCCN1CCN(c2nc3ccccc3nc2NS(=O)(=O)c2cccc(Cl)c2)CC1,78%[activator],9%
COc1cc(OC)c(NC(=O)CCc2nc(C3=CCN(Cc4cccc(Cl)c4)CC3)no2)cc1Cl,-9%,-16%
CCCOC(=O)C1=C(C)Nc2nnnn2C1c1cc(Br)ccc1OCC (stereo not given),-3%,8%
COCc1ccc(C(=O)NC(C)c2ccc(F)cc2F)cc1 (stereo not given),10%,4%
COC(=O)c1ccccc1NC(=O)Cn1c(=O)n(Cc2ccc(C(=O)NCc3ccc4c(c3)OCO4)cc2)c(=O)c2ccccc21,-15%,-9%
COc1cccc(C(N)=O)c1OCc1cccc(COc2c(OC)cccc2C(N)=O)c1,5%,3%

# Of the compounds above, twelve have a thiophene ring, fused or not:
SMILES,2A firefly,2A Renilla
COc1ccc2cc(-c3nc(Cl)c4c5c(sc4n3)CC(C)CC5)c(=O)oc2c1 (stereo not given),-13%,5%
Cc1ccccc1-n1c(=O)c2c3c(sc2n2cnnc12)CCCC3,1%&-15%,-20%&-15%
COc1ccc(CNC(=O)C2CCN(C(=O)c3ccc(-n4ccc5ccccc54)s3)CC2)cc1,5%,-27%
Cc1ccc(C(Nc2ccc3nnnn3n2)c2cccs2)cc1 (stereo not given),22%,111%[activator]
O=C(Cn1c(=O)n(-c2cccc(Cl)c2)c(=O)c2sc3ccccc3c21)N1CCCC1,24%,58%[activator]
CCC(C(=O)N1CCN(c2cccc(C)c2C)CC1)n1nc(C)c2sc3ccccc3c2c1=O (stereo not given),1%,-10%
CCOc1ccccc1NC(=O)c1sc2nc(C)cc(C)c2c1N,3%,-4%
COC(=O)c1sc(S(=O)(=O)Nc2ccccc2Br)c(C(=O)OC)c1C,15%,-10%
CSc1ccccc1NC(=O)c1csc(C)c1C,131%[activator],3%
CCN(CC)C(=O)c1sc(NC(=O)C(c2ccccc2)c2ccccc2)c(C#N)c1C,5%,-3%
CNC(=S)NNC(=O)c1csc2ccccc12,0%,23%
CN(CCC#N)Cc1ccsc1,-1%,0%

# In a second layout: results already given
> O=C(O)c1ccc2c(c1)oc1ccccc12
  2A firefly = 37%[activator]
  2A Renilla = 15%
> COc1cc2c(cc1OC)-c1c(c(C(=O)N3CCC(C(N)=O)CC3)nn1-c1ccccc1F)C2
  2A firefly = 47%[activator]
  2A Renilla = 130%[activator]
